Assay outcomes deposited in PubChem by National Center for Advancing Translational Sciences (NCATS).
A647 fluor: A647 region autofluorescence. 59,000 tested, under 10 active. max dye-equivalent concentration, M. Compound fluorescence, A647 channel (570/671 nm), Tris buffer; active means above 1 µM dye equivalent; inconclusive means 0.1 to 1 µM; inactive means 0.1 µM or less;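 further: values scaled relative to a standard on each plate; highest value over a series up to 38 µM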
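Compounds pinned into 100 mM Tris pH 8.0, 15 min at room temperature, then read with 570 nm excitation/671 nm emission filters. Fluorescence normalized to an on-plate six-point Alexa 647 standard curve, giving dye-equivalent concentration per compound concentration.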
Resorufin autofl: compounds fluorescent in resorufin spectral region. Compound fluorescence, resorufin region 547/598 nm, buffer; hits give high values. max dye-equivalent concentration, M. actives 0.04% (n = 59,000); active = above 10 nM dye equivalent; inconclusive = 1 to 10 nM; inactive = 1 nM or less; a few of its hits are not listed in these tables; further: highest value over a series up to 38 µM
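Compounds in 100 mM Tris buffer, pH 8.0, incubated 15 min at room temperature, then read with 547 nm excitation and 598 nm emission filters. Fluorescence was converted to dye-equivalent concentration using an on-plate six-point resorufin standard curve.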
TSHR ag: TSH receptor (human) agonism; Potency, µM (titrated, usually from 57.1 µM), for inactives: at the top dose activation, usual class: activators; HEK293-CNG-TSHR cells (CNG channel as cAMP sensor), membrane potential dye, cAMP; actives 0.48% (n = 73,000); active = well fitted activation curve of enough size with the parental cells flat; inconclusive = any curve in the parental cells; inactive = parental cells flat and receptor cells flat or falling; further: potency means the concentration at half of the fitted maximal effect; % of control where 0% means no effect; weak receptor curves with flat parental cells got no call and are not listed
Target sequence (P16473 whole entry, looked up): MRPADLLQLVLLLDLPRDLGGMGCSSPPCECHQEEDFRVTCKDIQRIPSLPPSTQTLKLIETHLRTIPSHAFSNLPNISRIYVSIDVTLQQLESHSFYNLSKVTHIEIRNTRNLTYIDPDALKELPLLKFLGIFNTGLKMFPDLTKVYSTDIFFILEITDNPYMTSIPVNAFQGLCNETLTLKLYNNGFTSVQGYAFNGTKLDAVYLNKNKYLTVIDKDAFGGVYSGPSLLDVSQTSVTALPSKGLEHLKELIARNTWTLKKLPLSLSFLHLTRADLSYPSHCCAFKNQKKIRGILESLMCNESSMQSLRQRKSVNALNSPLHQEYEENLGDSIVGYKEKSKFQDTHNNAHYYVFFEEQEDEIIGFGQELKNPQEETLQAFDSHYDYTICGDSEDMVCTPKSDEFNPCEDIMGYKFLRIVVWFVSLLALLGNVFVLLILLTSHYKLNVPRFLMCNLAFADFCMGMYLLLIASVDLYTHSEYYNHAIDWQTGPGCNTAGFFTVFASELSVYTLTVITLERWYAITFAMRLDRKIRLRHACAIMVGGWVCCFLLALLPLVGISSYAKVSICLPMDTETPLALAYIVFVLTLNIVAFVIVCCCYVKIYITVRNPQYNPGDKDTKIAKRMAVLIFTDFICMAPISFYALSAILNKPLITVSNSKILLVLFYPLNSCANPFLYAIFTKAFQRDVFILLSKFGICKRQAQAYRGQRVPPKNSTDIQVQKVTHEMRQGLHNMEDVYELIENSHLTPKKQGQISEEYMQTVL
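cAMP rise detected as CNG-channel membrane depolarization by fluorescent dye (emission 590 nm), 30 min after compound, following 60 min dye loading containing 100 uM RO 20-1724 at room temperature. Cells: TSHR/CNG HEK 293, with parental CNG HEK 293 as control.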
AID923: qHTS Assay for Allosteric/Competitive Inhibitors of Caspase-1: Spectroscopic Profiling in AFC Spectral Region; actives 1.1% (n = 75,000); compound fluorescence, AFC spectral region (405/520 nm); almost no hit is shown here; Potency, µM (titrated, usually from 57.5 µM), for the others: at the top dose fluorescence increase, hits mostly activators; AID 923, 2007; active means well fitted activation curve with a large enough effect; inconclusive means small, poorly fitted or top-dose-only effect;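 further: potency means the concentration at half of the fitted maximal effect; 0% is about no effect; scaled to a free AFC standard on each plate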
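Compound autofluorescence profiled at 405 nm ex/520 nm em during kinetic caspase 1 run (50 nM enzyme, 5 uM Ac-WEHD-AFC, HEPES pH 7.5, 10 mM DTT). Titration up to 57 uM; baseline from regression intercept, normalized to AFC standard curve.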
A488 fluor: compound fluoresces in the A488 spectral region. max dye equivalency, M. AID 591. compound autofluorescence, A488 spectral region, dye equivalency; hits give high values. actives 0.1% (n = 59,000); active = above 10 nM dye equivalent; inconclusive = 1 to 10 nM; inactive = 1 nM or less; about half of its hits are not listed in these tables;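 further: highest value over a series up to 38 µM; compound alone in buffer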
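Autofluorescence read at ex 480/em 540 nm after 15 min RT in 100 mM Tris pH 8.0; compound signal normalized to A488 standard series on each plate, reported as dye-equivalent concentration at each test concentration.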
The depositor's hits bear a star; i = inactive; ? = inconclusive; . = no result given; & = joins results of further samples; [ ] = another dose, or the depositor's remark. Only part of the results is shown; the hit share may differ from the screen's.

SMILES	A647 fluor	A488 fluor	Resorufin autofl	TSHR ag	AID923
COC(=O)C(CCSC)NC(=O)Cn1ncc2c(=O)oc3ccc(C)cc3c21 (centres undefined)	.	.	.	?	-1.7%
Cc1ccccc1NS(=O)(=O)c1ccc(NC(=O)c2ccco2)cc1	1e-09	i	i	-4.6%	-0.3%
Cc1cc(N2C(=O)CCC2=O)n(-c2ccccc2)n1	4.7e-08	i	i	4.2%	0.0%
COC(=O)c1ccc(NC(=O)C2C3C=CC(O3)C2C(=O)O)cc1 (centres undefined)	1.1e-09	i	i	-8.2%	3.4%
Nc1nc(NC(=O)c2cccs2)nn1-c1ccccc1	6.4e-09	i	i	.	.
CN(C)S(=O)(=O)N1CCN(S(=O)(=O)c2ccccc2)CC1	2e-09	i	i	11.8%[11.4 µM]	-2.2%
COc1cccc(Nc2ncc3nc(C)c(=O)n(-c4ccccc4)c3n2)c1	1.41e-08	i	i	?	3.7%
Cc1cccc(NC(=O)CCCCCN2C(=O)c3ccccc3C2=O)n1	4.5e-09	i	i	11.4%	1.1%
CC(C)c1ccccc1OCCCCCNCCO	.	.	.	19.2%	1.5%
COc1ccccc1-n1c(SCC(=O)N(C)C2CCS(=O)(=O)C2)nc2ccccc2c1=O (centres undefined)	3.64e-08	i	i	0.2%[11.4 µM]	-1.3%
CCc1ccccc1OCc1nnc(N)s1	2.94e-08	i	i	2.8%	0.7%
Cc1ccc(CC(=O)NCC(C)C)cc1	1e-09	i	i	0.4%	-0.5%
CCC1(C(=O)OC)NC(c2cccc(F)c2)C2C(=O)N(C)C(=O)C21 (centres undefined)	6.1e-09	i	i	7.8%	1.6%
CCCn1nnc(NC(=O)c2sc3ccccc3c2Cl)n1	9e-09	i	i	17.0%	-2.8%
CCOC(=O)c1c(C)oc2c1c(C=NC1CCS(=O)(=O)C1)c(O)c1ccccc12 (centres undefined)	4.9e-09	i	i	-3.2%	2.6%
COc1ccc(CC(=O)Nc2cc(C)ccn2)cc1	3.6e-09	i	i	-0.7%	-1.7%
CCS(=O)(=O)N1CCC(C(=O)NCCc2ccccc2)CC1	2.63e-08	i	i	-4.3%[11.4 µM]	0.0%
CC1(C)CC(=O)C2=C(C1)Oc1ncn3nc(-c4cccnc4)nc3c1C2c1ccccc1 (centres undefined)	1e-09	i	i	?	-0.9%
CCOC(=O)C1CCN(C(=O)c2cc3cc4cc(OC)ccc4nc3o2)CC1	1e-09	i	i	-0.6%	0.9%
O=C(NCCN1CCCC1)C1CC(=O)N(C2CCCCC2)C1 (centres undefined)	6.1e-09	i	i	1.0%	-1.7%
CCCc1nnc(SCC(=O)N2CCCC(C)C2)n1CCCOC (centres undefined)	4.7e-09	i	i	7.4%	-1.9%
CCOC(=O)N1CCN(C(=O)c2ccc(Cl)c(S(=O)(=O)Nc3ccccc3)c2)CC1	3.83e-08	i	i	8.9%	0.3%
N[C@H](C(=O)O)c1cccc(O)c1	.	.	.	-1.0%&13.9%	-2.3%&4.1%
COc1cccc(CNC(=O)CCS(=O)(=O)c2cccc3nsnc23)c1	3.5e-09	i	i	11.0%	-0.3%
CCC(Cl)CC(Cl)C(Cl)C(Cl)C(Cl)C(C)Cl (centres undefined)	.	.	.	?	-0.8%
O=C(COn1nnc2ccccc21)NCC1CCCCC1	2.92e-08	i	i	15.5%	-1.2%
NC(=O)c1cccc([N+](=O)[O-])c1	.	.	.	?	5.0%
O=C(CN1C(=O)C2C3C=CC(C3)C2C1=O)Nc1ccc2nccnc2c1 (centres undefined)	.	.	.	1.3%	0.2%
O=C(Cn1nnc(-c2ccccc2)n1)Nc1ccccc1N1CCOCC1	2.8e-09	i	i	?	-2.1%
CC(C)c1nc2ccccc2c2nnc(SCC(=O)NCc3ccco3)n12	2.1e-09	i	i	6.5%	1.3%

Two entries from above, set out differently:
COc1ccc(CC(=O)Nc2cc(C)ccn2)cc1
  A647 fluor: 3.6e-09
  A488 fluor: i
  Resorufin autofl: i
  TSHR ag: -0.7%
  AID923: -1.7%

Cc1ccc(CC(=O)NCC(C)C)cc1
  A647 fluor: 1e-09
  A488 fluor: i
  Resorufin autofl: i
  TSHR ag: 0.4%
  AID923: -0.5%

Further entries follow:
SMILES	A647 fluor	A488 fluor	Resorufin autofl	TSHR ag	AID923
Clc1ccc(Cn2ncc3c(N4CCCCC4)ncnc32)c(Cl)c1	6.8e-09	i	i	11.4%	-1.2%
CCOc1ccc(-c2nnc3sc(COc4ccc(C)cc4)nn23)cc1	2.89e-08	i	i	?	0.7%
CCCCn1nnnc1SCC(=O)Nc1ccc2c(c1)OCO2	2.7e-09	i	i	6.4%	1.9%
CC(=O)Nc1ccc(C(=O)CCl)cc1	.	.	.	-6.2%	5.2%
COc1cccc(OC)c1C(=O)Nc1ccccc1C(=O)N1CCOCC1	1e-09	i	i	?	5.3%
Nc1cc(C(=O)OCC(=O)NCC2CCCO2)ccc1Cl (centres undefined)	1e-09	i	i	2.7%	2.0%
Cc1cccc(N(C)C(=O)COc2cc(=O)n(C)c3ccccc23)c1	.	.	.	8.2%	1.4%
CN(C)CCCOC(=O)c1ccc(Cl)cc1	.	.	.	-4.0%	3.4%
CC(OC(=O)C(NC(=O)c1ccco1)C(C)C)C(=O)Nc1ncc(Cl)cc1Cl (centres undefined)	6.9e-09	i	i	9.6%	-0.2%
FC(F)(F)c1cnc(Oc2ccc(-c3nnco3)cc2)c(Cl)c1	1e-09	i	i	18.2%	-0.3%
COc1ccc(Cl)cc1Nc1cc(C)nc2nc(C)nn12	.	.	.	?	3.1%
COc1ccc(CNc2ncnc3ccc(-c4ccc(N(C)C)cc4)cc23)c(OC)c1	3.01e-08	i	i	?	5.2%
CC(C)C(=O)N1CCN(c2nc(-c3ccccc3)c3c(c2C#N)CCCC3)CC1	8.12e-08	i	i	.	.
COc1ccc(S(=O)(=O)NCc2ccccc2Cl)cc1OC	.	.	.	21.6%	0.0%
CSc1ccc(C(=S)N2CCN(C)CC2)cc1	1.82e-08	i	i	3.0%	-2.7%
CCOC(=O)C1CCN(C(=O)Cc2ccc(OC)c(OC)c2)CC1	.	.	.	4.0%	3.8%
O=C(Cc1cccs1)Nc1ccc(-c2nnn(CC(=O)N3CCOCC3)n2)cc1	1.7e-08	i	i	0.9%	-3.6%
Cc1nn(-c2ccccc2)c(C)c1P(=O)(c1ccccc1)N(C)C (centres undefined)	1e-09	i	i	7.2%	0.2%
Cc1ncc(CC(=O)n2cc(C(=O)c3cc(Cl)ccc3O)cn2)s1	5.4e-08	i	i	-21.4%	-0.6%
COc1cccc(-n2c(Cc3cc(=O)[nH]c(=O)[nH]3)nnc2SCC(=O)N2CCC(C)CC2)c1	2.38e-08	i	i	0.5%	-0.9%
Cc1ccc(CN(C(=O)c2c(F)cccc2F)C2CC(C)(C)NC(C)(C)C2)o1	6.9e-09	i	i	7.5%	0.5%
Cc1cc(=O)oc(C)c1C(=O)NC1CC(C)(C)NC(C)(C)C1	2.76e-08	i	i	.	.
CCCOC(=O)c1ccc(NS(=O)(=O)c2cccs2)cc1	1e-08	i	i	1.0%	11.7%
O=C(CSc1nnc(-c2ccccn2)n1-c1ccccc1)Nc1ccc2c(c1)OCO2	2.96e-08	i	i	11.9%	-0.3%
O=C(CC1SC(N2CCCCC2)=NC1=O)Nc1cccc(C(=O)O)c1 (centres undefined)	1.33e-08	i	i	-5.7%	1.0%
CCOC(=O)C(C#N)C(Cc1ccccc1)c1ccco1 (centres undefined)	2.63e-08	i	i	.	.
COc1cc(-c2noc(CCC(=O)Nc3cccnc3)n2)cc(OC)c1OC	8e-09	i	i	12.9%	2.1%
CCN(Cc1cc2cc(OC)ccc2[nH]c1=O)C(=O)Cc1ccc(OC)cc1	1e-09	i	i	6.2%	1.8%
O=C(CCN1C(=O)C2C3C=CC(C3)C2C1=O)N1CCN(c2ccccc2F)CC1 (centres undefined)	6.5e-09	i	i	2.2%	-0.4%
c1cncc(CNc2ccnc(-c3cccnc3)n2)c1	4.32e-08	i	i	7.6%	1.0%

(list continues)
SMILES	A647 fluor	A488 fluor	Resorufin autofl	TSHR ag	AID923
COC(=O)N1C2(C=CC1(C)C(=O)NCc1ccc(N(C)C)cc1)CCCCC2 (centres undefined)	.	.	.	4.3%	-1.4%
C[N+](C)(C)CCOC(N)=O	4.52e-08&8.3e-09	i	i	24.8%[25.6 µM]	2.6%
CCOc1cccc2cc(C(=O)N3CCN(C/C=C/c4ccccc4)CC3)c(=O)oc12	2.6e-09	i	i	6.5%	3.5%
CC(C)c1nc(N2CCN(C(=O)c3ccco3)CC2)c2c3c(sc2n1)CCCC3	3.9e-09	i	i	10µM*	-1.1%
CCCCNC(NCCCC)=C(S(=O)(=O)CC)S(=O)(=O)CC	.	.	.	6.7%[11.4 µM]	-2.0%
Cc1oc(-c2ccc3c(c2)OCCO3)cc1C(=O)O	1.5e-09	i	i	15.9%	-0.1%
CCC/C=C(\CCC)C(NC(=O)c1ccccc1)c1ccc(C(=O)OC)cc1 (centres undefined)	.	.	.	?	-0.5%
NC(N)=NC(N)=Nc1ccc(C(=O)O)cc1	3.82e-08	i	i	20.7%[11.4 µM]	1.0%[11.5 µM]
N#CN=C1SCCS1	3.12e-08	i	i	1.9%	0.8%
CC12CCC(=O)N1c1ccccc1C(=O)N2c1ccccc1 (centres undefined)	2.22e-08	i	i	18.8%	2.2%
Cn1c(=O)oc2cc(S(=O)(=O)NCCCN3CCCC3=O)ccc21	.	.	.	-0.8%	-2.0%
CN(C)c1ccc(-c2ccncc2)cc1	.	.	.	-1.5%	7.0%
CCOC(=O)Cn1nc(-c2ccc(Cl)cc2)cc1N	2.94e-08	i	i	?	-2.7%
CCOc1ccccc1N(CC(=O)Nc1ccccc1C(=O)NCc1ccco1)S(C)(=O)=O	4.8e-09	i	i	11.3%	2.0%
Cc1cc(NC(=O)CSc2nnc(-c3ccco3)n2Cc2ccco2)no1	1e-09	i	i	3.9%	1.3%
CCOc1ccc(CCNC(=O)C(O)c2ccccc2)cc1 (centres undefined)	5.95e-08	i	i	.	.
Cc1cnc(CNc2nc(-c3ccccc3Cl)nc3ccccc23)cn1	1.54e-08	i	i	?	0.8%
O=C(CCc1ccccc1)NC1CCSC1=O (centres undefined)	.	.	.	0.9%[11.4 µM]	-0.7%
CCCCCC1NC(=O)NC1CCCCCC(=O)O (centres undefined)	.	.	.	2.8%	0.8%
CCOC(=O)NC(Nc1nnc(SCC)s1)(C(F)(F)F)C(F)(F)F	.	.	.	9.7%[11.4 µM]	-2.1%
CC1CCN(c2nncc3ccccc23)CC1	6e-09	i	i	10.7%	-1.2%
CCN(CC)S(=O)(=O)c1cc(C(=O)Oc2ccccc2OC)ccc1OC	.	.	.	?	1.6%
CCCS(=O)(=O)n1nc(-c2ccc(OC)cc2OC)cc1N	.	.	.	7.9%	5.3%
COc1ccc(NC(=O)C2C(=O)NC3(C)CC2c2ccccc2O3)cc1 (centres undefined)	1.71e-08	i	i	1.0%	-2.8%
CCOC(=O)c1ccc(NC(=O)CSc2n[nH]c(-c3ccncc3)n2)cc1	2.69e-08	i	i	-2.4%	-0.7%
COCC(C)NC(=O)c1cc(-c2cccc(OC)c2)on1 (centres undefined)	1.22e-08	i	i	-1.8%	0.9%
O=C(CCCc1nc2ccccc2s1)N1CCN(S(=O)(=O)c2cccs2)CC1	1.07e-08	i	i	?	-0.1%
COc1cc(C2C(=O)N(C3CCCC3)CC(=O)N2Cc2ccco2)ccc1OC(C)C (centres undefined)	1e-09	i	i	?	-0.6%
